STK33 inh = inhibitors of human STK33 kinase. Q9BYT3. purified STK33, MBP phosphorylation, ADP-Glo luminescence. inhibition, % at 10 µM. 320,000 tested, 0.073% active;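 active means inhibition at or above 25%, using the most active replicate where run in duplicate; inactive means inhibition below 25%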
Target sequence (Q9BYT3 whole entry, looked up): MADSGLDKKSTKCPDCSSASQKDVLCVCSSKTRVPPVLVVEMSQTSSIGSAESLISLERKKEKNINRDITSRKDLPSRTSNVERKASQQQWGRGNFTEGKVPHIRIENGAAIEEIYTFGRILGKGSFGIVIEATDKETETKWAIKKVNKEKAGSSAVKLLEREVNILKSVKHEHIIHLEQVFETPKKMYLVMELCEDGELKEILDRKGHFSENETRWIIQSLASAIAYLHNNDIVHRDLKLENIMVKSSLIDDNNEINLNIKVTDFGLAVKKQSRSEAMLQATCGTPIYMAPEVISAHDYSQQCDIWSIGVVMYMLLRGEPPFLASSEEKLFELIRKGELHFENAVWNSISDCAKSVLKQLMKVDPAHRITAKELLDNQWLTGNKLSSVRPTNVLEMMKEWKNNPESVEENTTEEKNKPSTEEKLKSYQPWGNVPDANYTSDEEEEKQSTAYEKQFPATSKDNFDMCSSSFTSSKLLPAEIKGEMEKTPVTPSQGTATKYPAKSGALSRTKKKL
* hit, by the source's call.

item	compound	STK33 inh
1	CCCNc1nc(C)cc(-c2cc(C(=O)Nc3ccccc3)on2)n1	-0.5
2	CCC(=O)N1CCc2cc(S(=O)(=O)NCCN3CCCCC3CC)ccc21 (stereo not given)	1.0
3	Cc1cc(C)cc(-n2c(C)cc(/C=N/NC(=O)c3ccncc3)c2C)c1	0.1
4	Cc1ccc(S(=O)(=O)NCc2cn3c(C)csc3n2)cc1	-1.6
5	O=C(NCc1csc2ccc(Cl)cc12)Nc1ccccc1	-1.6
6	O=C(Nc1cc(C(F)(F)F)ccc1-n1cncn1)c1cn2ccccc2n1	-0.6
7	COc1ccc(CNC(=O)[C@@H](NC(=O)C2CCN(C(=O)[C@@H](N)CC(C)C)CC2)C(C)C)cc1	2.4
8	CC(=O)OCC(=O)N1CCN(c2ccc([N+](=O)[O-])cc2)CC1	-1.7
9	Cc1nc2cc3ccccc3cc2c(=O)[nH]1	0.1
10	O=C(CCC1CCCN(C(=O)Cc2cccc(F)c2)C1)N1CCN(c2ccccn2)CC1 (stereo not given)	-0.1

Quoted from above, entries 2 to 7
item	compound	STK33 inh
2	CCC(=O)N1CCc2cc(S(=O)(=O)NCCN3CCCCC3CC)ccc21 (stereo not given)	1.0
3	Cc1cc(C)cc(-n2c(C)cc(/C=N/NC(=O)c3ccncc3)c2C)c1	0.1
4	Cc1ccc(S(=O)(=O)NCc2cn3c(C)csc3n2)cc1	-1.6
5	O=C(NCc1csc2ccc(Cl)cc12)Nc1ccccc1	-1.6
6	O=C(Nc1cc(C(F)(F)F)ccc1-n1cncn1)c1cn2ccccc2n1	-0.6
7	COc1ccc(CNC(=O)[C@@H](NC(=O)C2CCN(C(=O)[C@@H](N)CC(C)C)CC2)C(C)C)cc1	2.4

Later entries.
item	compound	STK33 inh
11	COc1ccc(CCNC(C(=O)Nc2cc(C)cc(C)c2)c2ccccc2)cc1 (stereo not given)	1.1
12	CC1=[N+](C)N(c2ccccc2)C(=O)C1N=C/C=C/c1ccccc1 (stereo not given)	-0.9
13	COc1cc(O)c(C(CC(=O)N2CCN(c3ccccc3)CC2)c2cc(OC)c(OC)c(OC)c2)c(OC)c1 (stereo not given)	-0.6
14	O=S(=O)(c1ccccc1)N1CCN(Cc2c(O)ccc3ccccc23)CC1	-0.7
15	CC1=CN2C(=N)/C(=C/c3ccco3)C(=O)N=C2S1	1.4
16	Cc1cccc(C)c1NC(=O)CN(C)C(=O)C1CCCCC1	-1.3
17	Cc1cc(OC(C)C(=O)Nc2ccc(S(=O)(=O)Nc3onc(C)c3C)cc2)cc(C)c1Cl (stereo not given)	-2.2
18	O=C(CN1CCN(S(=O)(=O)N2CCCCC2)CC1)Nc1cc(Cl)ccc1Cl	-0.2
19	Cc1ccc(OCCOc2ccc(S(=O)(=O)N3CCCC3)cc2C(N)=O)cc1	0.2
20	Cc1ccccc1N1C(=O)C(Cl)=C(N2CCN(c3ccccc3)CC2)C1=O	-1.6

Part of the list above, with each value named.
17) Cc1cc(OC(C)C(=O)Nc2ccc(S(=O)(=O)Nc3onc(C)c3C)cc2)cc(C)c1Cl (stereo not given)
- STK33 inh = -2.2

18) O=C(CN1CCN(S(=O)(=O)N2CCCCC2)CC1)Nc1cc(Cl)ccc1Cl
- STK33 inh = -0.2

19) Cc1ccc(OCCOc2ccc(S(=O)(=O)N3CCCC3)cc2C(N)=O)cc1
- STK33 inh = 0.2

20) Cc1ccccc1N1C(=O)C(Cl)=C(N2CCN(c3ccccc3)CC2)C1=O
- STK33 inh = -1.6

(continued)
item	compound	STK33 inh
21	COc1ccc2cc(/C=N/NC(=O)CN(c3ccccc3C)S(=O)(=O)c3ccccc3)c(Cl)nc2c1	0.2
22	Cc1cccc(NC(=O)Cn2cc(C(=O)C3CC3)c3ccccc32)c1	-1.5
23	CCc1ccc(NC(=O)CS(=O)CC(=O)N2CCN(c3ccccc3F)CC2)cc1 (stereo not given)	-0.6
24	CCOc1ccccc1-n1nnnc1SCc1nc2ccccc2s1	-1.3
25	O=C(NCCc1c[nH]c2ccccc12)Nc1ccccc1	-1.3
26	CCOC(=O)c1cc(C)sc1NC(=O)CSC1=NCCS1	1.1
27	COC(=O)c1cc(Nc2cc(C)nc3ncnn23)cc(C(=O)OC)c1	0.0
28	Cc1nnc(SCC(=O)N2c3ccccc3C(C)(c3ccc(Cl)cc3)CC2(C)C)s1 (stereo not given)	-2.9
29	CC(C)[C@H]1CN=C2N(CCNC(=O)CCC3CCCCC3)[C@H](Cc3ccc(O)cc3)CN21	1.2
30	c1ccc(CCc2nn3c(Cn4nnc5ccccc54)nnc3s2)cc1	1.7
31	COc1cc(SC)ccc1C(=O)Nc1nc2ccccc2[nH]1	5.7
32	Cc1ccc2nc(-c3cccc(N)c3)[nH]c2c1	0.9
33	COc1ccc(NC(=O)CN(C)C(=O)C(C)Sc2ccccc2)cc1 (stereo not given)	-0.4

Bioassay records from PubChem BioAssay.

A portion of the library; most or all hits stand in other tables.
